From PubChem
GLA inh pH 4.5 = inhibitors of human alpha-galactosidase A at pH 4.5. P06280. purified enzyme, 4-MU-alpha-Gal fluorescence, pH 4.5. activity change, negative = inhibition, % at 105 µM. 230,000 tested, under 10 active. AID 1467; inconclusive = small, poorly fitted or top-dose-only inhibition, or a rising curve; inactive = flat fitted curve, though single readings scatter; no compound was filed as active;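 further: 0% = full activity with enzyme and -100% = basal without enzyme; dose as in the result columns while the protocol names 77 µM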
Rango complex inh = prevents formation of the Rango-importin beta complex | Q14974 | Rango CFP/YFP FRET sensor + importin beta, 45 min | Potency, µM (highest dose often 92.2 µM), for the others: at the highest dose inhibition of complex formation | actives 0.031% (n = 340,000); active = rising FRET ratio curve, often small or poorly fitted; inconclusive = mostly compound fluorescence or quenching in the first reads; inactive = flat curves in all reads;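 further: potency means the concentration at half of the fitted maximal effect; 0% = DMSO wells and 100% = buffer wells lacking importin beta; nearly all actives have a fitted effect of over 15% in size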
Target sequence (Q14974 whole entry, looked up): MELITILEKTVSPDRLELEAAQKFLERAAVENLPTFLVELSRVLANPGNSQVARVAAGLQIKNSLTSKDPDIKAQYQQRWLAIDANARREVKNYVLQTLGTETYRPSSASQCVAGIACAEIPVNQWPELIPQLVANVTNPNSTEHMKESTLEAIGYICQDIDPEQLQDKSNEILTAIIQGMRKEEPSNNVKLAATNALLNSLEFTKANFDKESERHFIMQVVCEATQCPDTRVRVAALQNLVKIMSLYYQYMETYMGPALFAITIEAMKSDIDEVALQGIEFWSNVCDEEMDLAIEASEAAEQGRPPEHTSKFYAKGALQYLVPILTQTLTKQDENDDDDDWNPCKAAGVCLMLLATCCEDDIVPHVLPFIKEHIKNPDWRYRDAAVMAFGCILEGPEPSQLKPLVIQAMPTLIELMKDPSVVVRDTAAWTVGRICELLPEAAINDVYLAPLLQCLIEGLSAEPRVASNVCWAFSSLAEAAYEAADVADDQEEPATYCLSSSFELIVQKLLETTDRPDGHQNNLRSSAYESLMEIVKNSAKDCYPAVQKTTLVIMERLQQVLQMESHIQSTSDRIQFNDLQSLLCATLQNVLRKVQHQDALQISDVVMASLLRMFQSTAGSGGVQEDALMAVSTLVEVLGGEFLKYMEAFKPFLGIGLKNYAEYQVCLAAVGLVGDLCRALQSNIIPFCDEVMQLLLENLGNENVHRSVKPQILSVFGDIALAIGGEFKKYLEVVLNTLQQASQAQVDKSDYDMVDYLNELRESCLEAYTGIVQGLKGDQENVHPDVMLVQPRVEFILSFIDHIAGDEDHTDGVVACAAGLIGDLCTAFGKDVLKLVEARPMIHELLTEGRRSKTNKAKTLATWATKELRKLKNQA
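FRET biosensor Rango (snurportin 1 IBB between N-terminal EYFP and C-terminal Cerulean), 50 nM in PBS/1 mM DTT/0.02% Tween-20/0.1% BSA, preincubated 5 min RT with compound; 0.125 microM importin beta added, 45 min RT, CFP/YFP FRET ratio read.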
miR-21 FLuc = miR-21 reporter, rising signal | Potency, µM (titrated, usually from 38.3 µM), for inactives: at the top dose reporter change, positive = more light | 340,000 tested, under 10 active | HeLa miR-21 FLuc reporter, luciferase, 48 h | AID 2288; active = well fitted rising curve with a large enough effect; inconclusive = small, poorly fitted or top-dose-only effect; inactive = no such curve, though single readings can be large or run the other way;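 further: % of control where 0% means no effect; miR-21 action dims this reporter so a rising signal means less miR-21 action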
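HeLa miR-21-FLuc reporter line, endogenous miR-21; 2000 cells/well in DMEM/10% FBS; compound titration up to ~40uM final, 48 h, 37 degree Celsius; luciferase detection reagent, 15 min lysis, CCD luminescence.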
Rango dissoc inh = prevents RanGTP from dissociating the Rango-importin beta complex; O95149+P62826; Biochemical FRET Rango-importin beta, RanGTP-induced dissociation; Potency, µM (series often up to 46.1 µM), for inactives: at the top dose activity change, negative = inhibition; actives 0.071% (n = 340,000); AID 540253; active means falling FRET ratio curve, often poorly fitted, with flat reads before Ran was added; inconclusive means other falling curves, or compound fluorescence or quenching; inactive means flat or rising ratio curve;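 further: potency means the concentration at half of the fitted maximal effect; % of control where 0% means no effect; nearly all actives have a fitted effect of over 45% in size; -100% = wells without RanGTP and RCC1; the record marks most hits as doubtful in a second field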
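Quantitative HTS using a FRET biosensor: 0.1 uM Rango, 0.25 uM importin beta, 0.6 uM Ran, 2 mM GTP, 0.2 uM RCC1 final, PBS with DTT, Tween-20 and BSA. Post-read taken 45 min after Ran addition.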
Numbers without * were called inactive; ? = inconclusive; · = no result given; & = joins results of further samples; [ ] = dose if it differs, or a comment. The list is partial; count on the stated rates, not on these rows.

GLA inh pH 4.5	Rango complex inh	miR-21 FLuc	Rango dissoc inh	compound
9	-1.5%	-2%	0%	COc1cc(OC)c2ccc(=O)oc2c1C(CCN1CCCC1)c1ccc2c(c1)OCO2 (stereo not given)
5	3.0%	13%	20%	CCn1c(SCC(=O)Nc2ccc(NC(=O)c3cccs3)cc2)nnc1-c1cccnc1
-4	2.1%	-14%	-11%	Cc1cccc(NC(=O)CO/N=C/c2ccc3c(c2)OCO3)c1
-11	1.9%	5%	5%	Cc1cccc2cc(CN(Cc3cccnc3)C(=O)c3ccccc3F)c(Cl)nc12
4	-3.2%	-24%	-14%	COc1ccc(NC(=O)COc2ccc(/C=N/n3c(C)nnc3C)cc2OC)cc1
·	0.7%	·	-1%	CSc1ccccc1C(=O)Nc1ccc(S(=O)(=O)NC2=NCCCCC2)cc1
-2	0.7%	-6%	4%	O=c1cnnc(N/N=C/c2ccc3c(c2)OCO3)[nH]1
·	0.4%	·	1%	CC(C)(C)N(Cc1ccc2c(c1)OCO2)C(=O)/C=C\S(=O)c1ccccc1 (stereo not given)
1	-1.5%	-10%	28%	CCCOc1ccc(C2NC(=O)NC2=O)cc1 (stereo not given)
·	-0.5%	6%	12%	CCN(CC)C(=O)C(Sc1nnnn1-c1ccc(O)cc1)c1ccccc1 (stereo not given)
·	5.6%	-9%	?	COc1ccc(CCNC(=O)CCOc2cc(C)ccc2C)cc1OC
2	-2.3%	-11%	-11%	O=C(CS(=O)(=O)c1c[nH]c2ccccc12)N1CCc2ccccc21
-9	-1.4%	-8%	1%	CNC(=O)CSc1nnnn1-c1ccc2c(c1)OCCO2
7	6.5%	-15%	-14%	O=C(NCc1ccc(Cl)cc1)C(=O)NCC1OCCN1S(=O)(=O)c1cccs1 (stereo not given)
-4	-0.3%	-30%	-27%	Cc1noc(C)c1C(=O)OCC(=O)c1c[nH]c2ccccc12
6	-3.6%	0%	-6%	COc1ccc(C)cc1NC(=O)C(=O)N1CCCC1
3	-5.1%	-5%	-20%	C/C(=N\NC(=O)Cn1cnc2ccccc21)c1cccs1
-4	-0.9%	-1%	14%	COc1ccc(CCN2CC(C(=O)NCc3ccc(F)cc3)CC2=O)cc1OC (stereo not given)
1	0.1%	-36%	-14%	Cc1cccc(C(=O)c2c[nH]cc2-c2ccccc2)c1
·	-0.1%	·	32%	COc1ccc(C)cc1NC(=O)c1nc2nc(C)cc(C)n2n1
·	-5.4%	2%&6%	14%	CCCCC(=O)N1CC(=O)Nc2ccc(F)cc2C1c1ccc(F)cc1 (stereo not given)
·	?	·	-6%	COc1ccc2c(c1)sc(=NC(=O)CS(=O)(=O)c1ccc(F)cc1)n2C
4	-4.4%	-7%	-5%	C=C1C(C(=O)Nc2ccccc2)C1C(=O)Nc1ccccc1 (stereo not given)
-1	4.4%	-1%	9%	COc1cccc(CNC(=O)CCN2C(=S)NC(C)(C)CC2C)c1 (stereo not given)
·	?	3%	?	CCOc1cc(/C=C2\SC(=NC)N(C)C2=O)c(Br)cc1OC(C)=O
0	-1.4%	0%	-3%	O=C(CN1C(=O)COc2ccccc21)c1ccc(Cl)cc1
8	-3.6%	1%	-10%	O=C(C1CCN(S(=O)(=O)N2CCOCC2)CC1)N1CCOCC1
·	-0.9%	·	24%	CCc1nc2ccccc2c(=O)n1/N=C/c1ccc(Cl)cc1
-3	?	-5%	-14%	CN(C)C(CN1C(=O)C2CC=CCC2C1=O)c1cn(C)c2ccccc12 (stereo not given)
-9	1.5%	-58%	25%	CCOc1cc([N+](=O)[O-])c2nc(N)sc2c1
·	-2.0%	-11%	-6%	CC(C)(C)c1ccc(C(=O)n2cnc3ccccc32)cc1
·	0.2%	-1%	-12%	COc1cccc2cc(C(=O)N3CCCc4ccccc43)oc12
-2	1.3%	-3%	-7%	COc1cc(CNCCc2ccccc2)ccc1OCC(N)=O
7	?	6%	4%	COc1cc(OC)c(N(C)S(=O)(=O)c2cccc(C(=O)OCc3c(C)noc3C)c2)cc1Cl
·	-0.6%	5%	0%	CC(=O)Nc1ccc(NC(=O)CC(c2ccccc2)c2ccccc2)cc1
·	3.1%	7%	18%	Cc1ccc(S(=O)(=O)NC(=O)NC(C)c2ccc(F)cc2)cc1 (stereo not given)
1	1.2%	-4%	7%	CN1CCCC(OC(=O)CCCCC(=O)OC2CCCN(C)C2)C1 (stereo not given)
-6	-0.1%	2%	-1%	COc1cc(OC)cc(C(=O)N2CCC(N3CCN(c4ccccc4)CC3)CC2)c1
·	3.7%	-4%	-15%	O=C(CN1C2CCCC1CC(NC(=O)c1ccccc1)C2)Nc1ccccc1 (stereo not given)
3	-6.2%	-31%	-18%	CN(C)c1cccc(C(=O)OCC(=O)Nc2nccs2)c1
·	1.2%	·	12%	Cc1ccccc1-n1c(C)nnc1SC(C)C(=O)NCC1CCCO1 (stereo not given)
-5	3.1%	-5%	9%	c1ccc2c(c1)OCC(c1csc3ncnc(N4CCCCC4)c13)O2 (stereo not given)
0	?	-12%	?	CSc1nnc(SCc2nc3sc(C(=O)O)c(C)c3c(=O)[nH]2)s1
-1	5.1%	-62%	-18%	O=C(Nc1ccccc1F)c1ccc(Cn2cc(Cl)cn2)cc1
3	-1.5%	1%	38%	CC1Cc2ccccc2N1C(=O)CN1C(=O)NC(C)(c2ccc3c(c2)OCCO3)C1=O (stereo not given)
·	0.4%	-1%	-12%	COc1ccc(-c2noc(N3CCC(C(=O)Nc4ccccc4F)CC3)n2)cc1
-7	8.3%	-14%	17%	CCOc1ccc2nc(SCC3CC3(Cl)Cl)[nH]c2c1 (stereo not given)
4	2.3%	8%	-7%	O=C(Cn1cc(C(=O)C(F)(F)F)c2ccccc21)N1CCOCC1
·	0.1%	-4%	26%	CS(=O)(=O)Nc1cccc(C2=NN(C(=O)CCCC(=O)O)C(c3cccs3)C2)c1 (stereo not given)
7	-5.4%	-9%	9%	C=CCOc1ccc(CNn2cn[nH]c2=S)cc1OCC
·	-2.2%	·	-4%	O=C(O)C1C2CC(C(Br)C2Br)C1C(=O)O (stereo not given)
-2	?	0%	?	O=C(O)CCCC(=O)Nc1nc2n(n1)C(c1ccc(F)cc1)CC(c1ccc(Cl)cc1)N2 (stereo not given)
·	-1.4%	14%&-6%	-6%	Cc1ccc(Cl)cc1N1CCN(C(=O)C(C)n2ncn3cccc3c2=O)CC1 (stereo not given)
·	-0.7%	-3%	3%	Cc1cc(C)cc(N(C(=O)c2csnn2)C(C(=O)NC2CCCCC2)c2ccccn2)c1 (stereo not given)
·	0.3%	·	-13%	CCC(=O)c1c(CC)c2n3c1CC[C@H]3CCC2
·	9.0%	17%	0%	CCOc1ccc(CCNC(=O)CS(=O)(=O)Cc2nc(-c3ccccc3F)oc2C)cc1
-3	-1.8%	16%	-6%	CCN(CC)C(=O)CSc1nc2c(sc(=S)n2CC)c(=O)n1-c1ccccc1
-9	-5.9%	0%	1%	Cc1ccc(C(C(=O)NC2CCCC2)N(C(=O)Cc2cccs2)c2cccc(C)c2C)o1 (stereo not given)
·	2.2%	-3%	-9%	CCC(CC)c1nnc(NC(=O)CN2C(=O)NC3(CCCC3)C2=O)s1
4	0.5%	-1%	-1%	Cc1nc(CNS(=O)(=O)c2ccc3ccccc3c2)cs1

3 consecutive entries already listed:
GLA inh pH 4.5	Rango complex inh	miR-21 FLuc	Rango dissoc inh	compound
7	-5.4%	-9%	9%	C=CCOc1ccc(CNn2cn[nH]c2=S)cc1OCC
·	-2.2%	·	-4%	O=C(O)C1C2CC(C(Br)C2Br)C1C(=O)O (stereo not given)
-2	?	0%	?	O=C(O)CCCC(=O)Nc1nc2n(n1)C(c1ccc(F)cc1)CC(c1ccc(Cl)cc1)N2 (stereo not given)

Next section
GLA inh pH 4.5	Rango complex inh	miR-21 FLuc	Rango dissoc inh	compound
0	?	1%	?	COc1cc(N2CCOCC2)ccc1C=C(C#N)C#N
?	0.2%	0%	4%	Cc1ccc(SCCC(=O)OC(C(=O)NC(N)=O)C(C)C)cc1 (stereo not given)
-5	0.5%	-3%	2%	O=C(CNS(=O)(=O)c1ccc(Cl)cc1)OCC(=O)N1CCCc2ccccc21
·	-1.2%	·	-8%	Cc1csc(=O)n1CCC(=O)OCC(=O)NNC(=O)c1ccc(Cl)cc1
2	·	0%	·	Brc1ccc(-c2nn3c(-c4ccncc4)nnc3s2)o1
·	0.6%	-15%	1%	Cc1cnc(NC(=O)Nc2ccc(OCc3ccccc3)cc2)c(Br)c1
-9[21.1 µM]	1.3%	2%	10%	COc1ccccc1-n1ccnc1SCC(=O)NC(C)(C)C
-5	1.2%	3%	-4%	NS(=O)(=O)c1ccc(CCNS(=O)(=O)c2ccccc2)cc1
-2[21.1 µM]	-3.3%	2%	22%	CSc1nc(N(C)C)nc(N(C)C#N)n1
-5	-1.1%	-7%	2%	Cc1cc(-c2ccccc2)n(-c2ccc(C(=O)NC(C)C)cc2)n1
-2	-1.3%	-16%	4%	CCN(CC)CCN(C(=O)c1ccc2c(c1)CCCC2)c1nc2ccc(F)cc2s1
1	4.0%	-1%	4%	NC(=O)C1(N2CCCCC2)CCN(S(=O)(=O)c2cc(Cl)ccc2Cl)CC1
10	?	-1%	-7%	CC1(C)NC(=O)N(CC(=O)OCC(=O)Nc2sccc2C#N)C1=O
-4	-1.5%	0%	-4%	O=C1CC(c2ccccc2)=Nc2ccccc2N1Cc1ccccc1
2	0.8%	-4%	1%	CC(C)(O)C#Cc1ccc(CN2CCN(Cc3ccccc3)C(CCO)C2)cc1 (stereo not given)
·	3.9%	-44%	9%	CC(C)(C)OC(=O)COc1ccc(/C=N/NC(=O)CN2CCCCC2)cc1
-14	1.0%	-15%	-2%	CN(C)c1ccc(CN(C(=O)/C=C/c2ccccc2Cl)C2CCS(=O)(=O)C2)cc1 (stereo not given)
-13	?	5%	-13%	C#CCOCCOCCOCCNc1nc(N2CCN(C(=O)[C@H](Cc3ccc(O)cc3)n3cc([C@@H](N)C(C)CC)nn3)CC2)nc(N2CCN(C(=O)[C@H](Cc3cc4ccccc4[nH]3)n3cc([C@@H](N)C(C)CC)nn3)CC2)n1 (stereo not given in full)
0	4.9%	-3%	9%	O=C(NCCc1ccc(Cl)cc1)c1ccc(CNc2c(N3CCOCC3)c(=O)c2=O)cc1
·	0.7%	-8%	-5%	Cc1cc(S(=O)(=O)N2CCN(c3ccccn3)CC2)c(C)cc1Cl
·	2.8%	22%	22%	Cc1cc(C)cc(C(=O)NCC(=O)N2CCN(c3cccc(Cl)c3)CC2)c1
·	-0.3%	18%	7%	NS(=O)(=O)c1ccc(CCNC(=O)CN2CCN(Cc3cccc(C(F)(F)F)c3)CC2)cc1
10	0.9%	0%	11%	Cn1nnnc1SCC(=O)N1CCc2ccccc21
·	-1.4%	-10%	9%	COCC(=O)N(Cc1cc2cc(C)ccc2[nH]c1=O)c1ccc(C)c(C)c1
-5	3.7%	-5%	-13%	O=C(C1CCCN1S(=O)(=O)c1cccc2cccnc12)N1CCc2ccccc2C1 (stereo not given)
-5	7.0%	-6%	1%	Cc1csc(Sc2ccc(S(=O)(=O)N3CCCC3)cn2)n1
-5	0.3%	-1%	16%	CC(=O)c1c(OC(=O)c2cccc(Cl)c2)c2ccccc2n1C
1	-1.3%	3%	-3%	Cc1cc(C)nc(-n2nc(C)cc2NC(=O)c2ccc(F)cc2F)n1
5	-3.4%	-1%	6%	OC(CCCCN1CCCCC1)c1ccccc1 (stereo not given)
4	0.5%	-3%	7%	O=C(c1ccc(S(=O)(=O)N2CCOCC2)cc1)N1CCOCC1
8	0.0%	-3%	-8%	CCOC(=O)C1C(=O)NC(SCC(=O)OC)=C(C#N)C1c1ccccc1OCC (stereo not given)
·	4.4%	·	8%	Cc1ccc(C(=O)Nc2ccccc2N2CCOCC2)cc1S(=O)(=O)N1CCOCC1

Record cards (already shown). Values in the order: GLA inh pH 4.5, Rango complex inh, miR-21 FLuc, Rango dissoc inh
Cc1cc(C)cc(C(=O)NCC(=O)N2CCN(c3cccc(Cl)c3)CC2)c1 across the screens: ·, 2.8%, 22%, 22%
O=C(NCCc1ccc(Cl)cc1)c1ccc(CNc2c(N3CCOCC3)c(=O)c2=O)cc1 across the screens: 0, 4.9%, -3%, 9%
